# Assay outcomes as filed in PubChem BioAssay.
# YjeE inh = qHTS Assay for Inhibitors of YjeE; actives 0.05% (n = 71,000); tRNA threonylcarbamoyladenosine biosynthesis protein TsaE (Escherichia coli (strain …; purified YjeE, fluorescence polarisation of a bound ADP probe; AID 605, 2007; Potency, µM; active = well fitted falling curve; inconclusive = weaker or top-dose-only fall, or a rising curve; inactive = flat or poorly fitted curve;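 note: top concentration of the series not given in the record; excess ADP was the control for the full effect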
#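 Fluorescence polarization of a BODIPY Texas Red–ADP probe (2 uM) bound to purified YjeE (10 uM) was read after 15 min room-temperature incubation with compounds. Loss of polarization marks inhibitors; ADP serves as titrated control.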
# PK Bst = Pyruvate Kinase; partly purified Bacillus stearothermophilus pyruvate kinase, luminescence ATP production; ribose 5-phosphate activator present at AC10; Potency, µM; actives 1.2% (n = 51,000); in the data active means potency below about 11 µM; inconclusive means mostly about 12 µM to 25 µM; inactive means weaker than that;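 the screen sought inhibitors and activators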;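 note: potency is the fitted concentration of half-maximal effect; scaled between full activation by ribose 5 phosphate and full inhibition by luteolin; about four in five hits inhibit and the cells do not say which; series up to 57 µM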
# An asterisk follows results filed as active; i = inactive; / = not tested or not shown. Only part of the results is shown. The share of hits here may be higher or lower than overall.
entry	Structure	YjeE inh	PK Bst
1	CCOC(=O)c1c(NC(=O)CSc2nnc(C)c(=O)[nH]2)sc2c1CCC2	i	>57
2	CCC(Oc1ccccc1)C(=O)Nc1nnc(C(F)(F)F)s1 (configuration not stated)	i	>57
3	CCC(OC(=O)c1ccco1)C(=O)NCc1ccc(C)cc1 (configuration not stated)	i	>57
4	O=C(CN1CCN(c2ccc(F)cc2)CC1)Nc1nnc(-c2ccccc2)s1	i	>57
5	O=C(O)[C@@H]1CCCNC1	i	/
6	Cc1cc(-n2nc(C)cc2C)nc(N)n1	i	>57
7	O=C(O)c1cc(=O)c2c(Cl)cc(Cl)cc2[nH]1	i	/
8	COC(=O)C(Cc1ccc(O)cc1)NC(=O)CCC(=O)Nc1ccc(S(N)(=O)=O)cc1 (configuration not stated)	i	>57
9	COC(=O)c1[nH]c2cc(OC)ccc2c1NC(=O)CN1CCC(C(N)=O)CC1	/	>25.6
10	CCOc1ccccc1OCCOCCN1CC(C)OC(C)C1 (configuration not stated)	i	>57
11	O=C(NC1CCCCC1)C1CCN(S(=O)(=O)N2CCOCC2)CC1	i	>57
12	Cn1c(/C=N/c2nc3ccccc3[nH]2)nc2ccccc21	i	>57
13	Cc1onc(-c2ccccc2Cl)c1C(=O)OCn1nnc2ccccc2c1=O	i	/
14	COc1ccc(C2CC(=O)c3cnc(NC(=O)c4cccc(OC)c4)nc3C2)cc1 (configuration not stated)	i	>57
15	O=S(=O)(Nc1nc2ccccc2nc1NCCN1CCOCC1)c1cccc(Cl)c1	i	>57
16	CCc1nnc(NC(=O)C2CCCN2C(=O)NC2CCCCC2)s1 (configuration not stated)	i	>57
17	COC(=O)c1c(C)oc2ccc(OC(=O)N3CCOCC3)cc12	i	>57
18	Cc1nn(-c2ccc(Cl)cc2)c(N)c1C(O)(CSc1nccn1C)C(F)(F)F (configuration not stated)	i	>57
19	Cc1cccc2cc(CN(CCN3CCCC3)C(=O)NC3CCCCC3)c(=O)[nH]c12	i	>57
20	O=c1c2ccccc2nc(SCc2cccc(F)c2)n1Cc1ccco1	i	>57
21	O=S(=O)(/N=C(/Nc1cc(N2CCOCC2)ncn1)c1ccccc1)c1ccccc1	i	/
22	CN(C)c1ccc(NC(=O)c2sc(SCC(=O)Nc3nccs3)nc2N)cc1	/	10*
23	CC(NC(=O)Nc1ccc2c(c1)OCO2)C1CCCO1 (configuration not stated)	i	>57
24	Cc1ncc(CSc2nc3ccccc3[nH]2)c(N)n1	i	>57
25	Cc1ccc(-c2nnc(CSc3nnc(COc4ccccc4)n3-c3ccccc3)o2)cc1	i	>57
26	CCCc1cc(C(=O)NCCc2ccc(OC)c(OC)c2)no1	i	/
27	O=C(COC(=O)Cc1cn2ccsc2n1)Nc1nc2ccccc2s1	i	>57
28	COc1ccc(NC(=O)N2CCCC3(CCNCC3)C2)cc1	i	/
29	CN(C)C(CNC(=O)CSc1nnc(-c2ccco2)o1)c1ccccc1 (configuration not stated)	i	>57
30	O=C(c1cc2nc(-c3ccco3)cc(C(F)(F)F)n2n1)N1CCCc2ccccc21	i	>57
31	CSc1ncccc1C(=O)OCC(=O)Nc1cc(C(F)(F)F)ccc1N1CCOCC1	i	>57
32	COc1ccc(-c2nn(-c3ccccc3)cc2C(=O)N2CCOCC2)cc1	i	>57
33	Cc1ccc(S(=O)(=O)C(C#N)c2nc3ccccc3nc2N2CCCC2)cc1 (configuration not stated)	i	>57
34	C=CCn1c(COc2ccccc2F)nnc1SCC(=O)N1CC(=O)Nc2ccccc21	i	>57
35	O=C(OCc1nnc(-c2ccccc2)o1)c1cn(-c2ccccc2)nc1-c1ccccc1	i	>57
36	C=CCn1c(SCc2cc(=O)n3ccsc3n2)nc2sc(C)c(C)c2c1=O	i	>57
37	O=S(=O)(Nc1ccccc1Cl)c1ccc(F)cc1	i	>11.4
38	Cc1cccc(C2N(c3nccs3)C(=O)C3CCCN32)c1 (configuration not stated)	i	>57
39	c1ncc(-c2ccoc2)c(NC2CC2)n1	i	/
40	CCSc1nnc(NC(=O)c2cnccn2)s1	i	/
41	CC1(C)CC2(CCO1)CNC(=O)O2 (configuration not stated)	i	/
42	O=C(NC1CCCC1)C1CCC(=O)N1C1CCCC1 (configuration not stated)	i	>57
43	COC(=O)C1CCN(C(c2ccc(OC)c(OC)c2)c2sc3nc(C)nn3c2O)CC1 (configuration not stated)	i	/
44	O=C(/C=N/O)Nc1ccccc1	i	>57
45	COc1cc(OC)c(C2N(c3ccc(Cl)cc3)C(=O)C3CCCN32)cc1OC (configuration not stated)	i	/
46	Cc1ccc(S(=O)(=O)N2CCC(C(=O)OCC(=O)N3CCc4ccccc43)CC2)cc1	i	>57
47	COCCNC(=O)CSc1nc2cc(OC)c(OC)cc2c(=O)n1CCC1=CCCCC1	i	>57
48	Cc1cc(C)nc(Nc2n[nH]c(Cc3ccccc3)n2)n1	i	>57
49	O=C(NCCN1CCCCCC1)C1CC(=O)N(CCc2ccccc2)C1 (configuration not stated)	i	>57
50	O=C(CC1C(=O)NCCN1C(=O)Nc1ccccc1)Nc1ccc2c(c1)OCO2 (configuration not stated)	i	>57
51	Cn1c(=O)c2[nH]c(CCCCc3nc4ccccc4[nH]3)nc2n(C)c1=O	i	/
52	O=C(O)c1nnsc1-c1csnn1	i	/
53	CC1(C)CC(=O)C=C(NC2CC(C)(C)NC(C)(C)C2)C1	i	/
54	O=C(CN1CCN(c2ccc(F)cc2)CC1)Nc1ccc(F)c(F)c1	i	>57
55	CC1(C)Cc2ccccc2-c2nc3ccccc3c(=O)n21	i	/
56	Cc1csc(=O)n1CC(=O)OCc1cccc2ccccc12	i	/
57	Cc1ccc(CC(=O)OCCNC(=O)c2cccnc2)cc1	i	>57
58	CCCCc1nc2ccccc2c(=O)n1NC(=O)c1c(O)c2cccc3c2n(c1=O)CCC3	i	>57
59	COc1cc(NC(=O)N[C@H](C(=O)O)C(C)C)cc(OC)c1	i	>57
60	CCOC(=O)CNS(=O)(=O)c1ccc(C(=O)O)cc1	i	>57

# Shown as a hit in PK Bst, among the entries above:
entry	Structure	YjeE inh	PK Bst
22	CN(C)c1ccc(NC(=O)c2sc(SCC(=O)Nc3nccs3)nc2N)cc1	/	10*

# Two of these compounds in a different format.
31. CSc1ncccc1C(=O)OCC(=O)Nc1cc(C(F)(F)F)ccc1N1CCOCC1
40. CCSc1nnc(NC(=O)c2cnccn2)s1

Screen / compound no. | 31 | 40
YjeE inh | i | i
PK Bst | >57 | /

# The main list resumes with the four entries that preceded the break.
entry	Structure	YjeE inh	PK Bst
57	Cc1ccc(CC(=O)OCCNC(=O)c2cccnc2)cc1	i	>57
58	CCCCc1nc2ccccc2c(=O)n1NC(=O)c1c(O)c2cccc3c2n(c1=O)CCC3	i	>57
59	COc1cc(NC(=O)N[C@H](C(=O)O)C(C)C)cc(OC)c1	i	>57
60	CCOC(=O)CNS(=O)(=O)c1ccc(C(=O)O)cc1	i	>57
61	CCOC(=O)N1CCC(N2Cc3cccc(C(=O)NCc4ccc(OC)cc4)c3C2=O)CC1	i	>57
62	Cc1ccccc1-c1cc(NCc2ccccc2)ncn1	i	/
63	CSc1ncccc1C(=O)OCC(=O)N1CCOCC1	i	>57
64	COC(=O)c1cccc(C(=O)Oc2cccc(Br)c2)n1	i	>57
65	CCCOc1ccc(N2CC(C(=O)Nc3ncccc3C)CC2=O)cc1 (configuration not stated)	i	>57
66	COc1ccc(-c2noc(-c3cc(Cl)ccc3Cl)n2)cc1OC	i	>57
67	C=N[C@H](C(=O)N[C@@H]1C(=O)N2[C@@H]1SC(C)(C)[C@@H]2C(=O)O)c1ccccc1	i	/
68	COc1ccccc1Cn1cnc2cccnc21	i	>57
69	CCN1C(=O)c2cccc3c(NC(=O)c4ccc5c(c4)OCCO5)ccc1c23	i	>57
70	Cc1ccc(NC(=O)C2CCCN(S(=O)(=O)c3c(C)noc3C)C2)cc1F (configuration not stated)	i	>57
71	CC1CCCC(NC(=O)CN2CCN(Cc3ccc(Cl)cc3)C2=O)C1C (configuration not stated)	i	>57
72	CCCc1nnc(NC(=O)CCC(=O)Nc2ccc(F)cc2)s1	i	>57
73	CCn1c(SCC(=O)N2CCCc3ccccc32)nc2cccnc21	i	>57
74	CCCCCN=c1ccn(Cc2ccccc2)c2ccccc12	i	/
75	COc1cc(C)cc2c(-c3c(O)cc(O)c4c3C[C@H](C)N[C@@H]4C)cc(-c3cc(-c4c(O)cc(O)c5c4C[C@H](C)N[C@@H]5C)c4cc(C)cc(OC)c4c3O)c(O)c12	i	/
76	COCCSc1nnc(-c2cnccn2)o1	i	>57
77	O=C1c2[nH]nc(-c3ccccc3O)c2C(c2ccc(F)cc2)N1Cc1ccco1 (configuration not stated)	i	>57
78	Cc1cccc2cccnc12	i	/
79	Cc1cccc(N(CC(=O)Nc2ccc(CC#N)cc2)S(C)(=O)=O)c1	i	>57
80	Cc1ccc(C)c([N+](=O)[O-])c1	i	/
81	c1ccc(-c2nnc(CSc3nncs3)o2)cc1	i	>57
82	Cc1nccn1CCCN1C(=O)OC2(CCCCC2)C1(C)O (configuration not stated)	i	>57
83	CC1=CC(C)(C)Nc2ccc(C)cc21	i	>57
84	Cn1c(=O)c2c(n(C)c1=O)=NC1(CCCCC1)ON=2	i	>57
85	Cc1nc2ncnn2c(Nc2ccc3c(c2)OCCO3)c1C	i	>57
86	CCOc1nc(SC(C(C)=O)C(=O)Nc2ccccc2)nc(N(C)C)n1 (configuration not stated)	/	>11.4
87	Cc1nnc(Sc2cc(C(=O)NCc3ccco3)c3ccccc3n2)s1	i	/
88	COc1ccc(C(CC(=O)O)NC(=O)OC(C)(C)C)cc1 (configuration not stated)	/	>25.6
89	Cc1onc(-c2ccccc2Cl)c1C(=O)Nc1ccccc1C(=O)NC(C)C	i	>57
90	COc1ccc2cc3cc(C(=O)NCC4COc5ccccc5O4)oc3nc2c1 (configuration not stated)	i	>57

# Entries by screen from the entries so far:
# YjeE inh for entries 56–67 → i, i, i, i, i, i, i, i, i, i, i, i

# Going on with the list:
entry	Structure	YjeE inh	PK Bst
91	O=C(O)C1CCCN1C(=O)c1cccs1 (configuration not stated)	i	>57
92	COc1ccc(-c2cnc(N)n2CC2CCCO2)cc1 (configuration not stated)	i	>57
93	CCCC(=O)Nc1ccc(C(=O)Nc2nnc(COC)s2)cc1	i	>57
94	COc1ccc2[nH]c(C(=O)O)c(NS(=O)(=O)c3ccc(OC)c(OC)c3)c2c1	i	/
95	COc1ccc(CCN/C=C2/CC(=O)NC2=O)cc1OC	i	>57
96	Cc1cc2ncn(C(=O)c3c(-c4c(Cl)cccc4Cl)noc3C)c2cc1C	i	/
97	CCOC(=O)c1[nH]c2cc(OC)c(OC)cc2c1NC(=O)C(C)N1CCN(Cc2ccccc2)CC1 (configuration not stated)	/	>25.6
98	CCC(C)Nc1nc2c(c(=O)n(C)c(=O)n2C)n1Cc1cccc(C)c1 (configuration not stated)	i	>57
99	COc1ccccc1C(=O)Nc1nc2ccc(S(C)(=O)=O)cc2s1	i	/
100	COc1ccc(-n2c(=O)[nH]cc(C(=O)N3CCc4ccccc43)c2=O)cc1	i	>57
101	O=C(CSc1ccc(-c2ccccc2)nn1)N1CCOCC1	i	>57
102	O=c1cc(-c2ccccc2)c2ccc(O)c(CN3CCCCC3)c2o1	i	>57
103	O=C(CSc1nnc(-c2cccs2)o1)N1CCCc2ccccc21	i	>57
104	CC1(C)Oc2ccc(C(=O)N3CCOCC3)cc2N(CC(=O)N2CCOCC2)C1=O	i	>57
105	CC1(C(=O)NC2CCCCC2)CCC(=O)N1Cc1cccs1 (configuration not stated)	i	/
106	O=C(NCCO)c1cccc(S(=O)(=O)N2CCCCC2)c1	i	>57
107	O=C(N1CCOCC1)N(CCN1CCOCC1)Cc1cccc(Cl)c1	i	>57
108	Cc1cccc(Nc2ncnc3nc[nH]c23)c1C	i	/
109	CCOC(=O)C1CCN(C(=O)CS(=O)Cc2nc(-c3ccc(C)cc3)oc2C)CC1 (configuration not stated)	i	/
110	CCn1c(SCC(=O)N2c3ccccc3Sc3ccccc32)nc2c1c(=O)n(C)c(=O)n2C	i	>57
111	CCCn1nc(C(=O)NCc2ccccn2)c2ccccc2c1=O	i	>57
112	O=C(c1ccc(-c2ccccc2)cc1)N1CCN(c2nc3ccccc3o2)CC1	i	/
113	COc1ccc(OC)c(C2C(C#N)=C(N)Oc3cc(C)n(Cc4ccccn4)c(=O)c32)c1 (configuration not stated)	/	>11.4
114	Cc1cc(-c2ccccc2)nc2[n+]1CCN2C	i	>57
115	CCN(CC)C(=O)CSc1nc2ccccc2c(=O)n1OC	i	>57
116	O=C(CSc1nc2ccccc2o1)Nc1ccc(N2CCOCC2)cc1	i	>57
117	Cc1cc(NC(=O)CCc2ccc(S(=O)(=O)N3CCOCC3)cc2)n(-c2ccccc2)n1	i	>57
118	O=C(CN1CCN(Cc2ccccc2Cl)C1=O)NCC1CCCO1 (configuration not stated)	i	/
119	Nn1c(SCC(=O)Nc2ccccc2F)nc2ccccc2c1=O	i	>57
120	CC(=O)NC(CCS(C)(=O)=O)C(=O)Nc1ccccc1Cl (configuration not stated)	i	>57
121	COc1ccc(C(CNC(=O)c2cc(=O)[nH]c3ccccc23)N2CCCC2)cc1 (configuration not stated)	i	>57
122	CCOC(=O)C1=C(C)N(CCO)C(=O)NC1c1cccc(O)c1 (configuration not stated)	i	>57
